# KCNQ2 block: KCNQ2 potassium channel inhibitors, primary screen, cell-based, CHO-K1, FluxOR thallium flux, B-score (AID 2156). O88943. 20 min; active compounds read low; only compounds with negative scores are shown here; some inactives read as strong as hits. B-score at 10 µM. 1.1% of 310,000 active;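 active means fluorescence ratio B-score at most minus 3 library SDs, with starting brightness B-score within 2 library SDs, cut at about -5.5 in these data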
# Target sequence (O88943 whole entry, looked up): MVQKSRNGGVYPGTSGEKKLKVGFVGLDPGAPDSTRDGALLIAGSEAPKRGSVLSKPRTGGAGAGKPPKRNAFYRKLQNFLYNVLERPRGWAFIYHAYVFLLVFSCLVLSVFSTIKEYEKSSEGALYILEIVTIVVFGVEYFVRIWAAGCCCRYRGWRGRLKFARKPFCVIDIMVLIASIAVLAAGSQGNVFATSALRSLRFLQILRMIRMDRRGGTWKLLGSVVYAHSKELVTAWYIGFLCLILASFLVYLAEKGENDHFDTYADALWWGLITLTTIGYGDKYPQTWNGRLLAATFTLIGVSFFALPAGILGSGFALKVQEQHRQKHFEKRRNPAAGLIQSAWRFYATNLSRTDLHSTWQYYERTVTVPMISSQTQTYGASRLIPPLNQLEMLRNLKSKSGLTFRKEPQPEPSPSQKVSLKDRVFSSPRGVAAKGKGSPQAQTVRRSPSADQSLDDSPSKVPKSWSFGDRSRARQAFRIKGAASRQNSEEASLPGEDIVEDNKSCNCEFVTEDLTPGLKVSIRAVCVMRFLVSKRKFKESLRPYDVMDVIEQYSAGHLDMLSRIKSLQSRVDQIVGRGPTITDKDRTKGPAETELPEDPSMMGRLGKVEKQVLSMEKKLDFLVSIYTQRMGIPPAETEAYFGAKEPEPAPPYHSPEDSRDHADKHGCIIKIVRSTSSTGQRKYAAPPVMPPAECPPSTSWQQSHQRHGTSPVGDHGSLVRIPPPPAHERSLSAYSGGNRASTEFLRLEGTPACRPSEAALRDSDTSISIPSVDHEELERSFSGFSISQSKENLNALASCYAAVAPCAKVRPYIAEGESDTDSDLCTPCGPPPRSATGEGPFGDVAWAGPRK
# KCNQ2 block baseline: recorded beside KCNQ2 block, whose call it bears; B-score; measured here: initial fluorescence intensity artifact check;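 brightness before thallium and not channel activity; 0 = typical well and far values either way flag optical interference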
# Starred values were filed as active, the others as inactive; i = inactive.
[1] CCC(C)Sc1cccc(-c2nc3ccc(C)cn3c2NC2CCCCC2)c1 (configuration not stated)
  KCNQ2 block: i
  KCNQ2 block baseline: -1.5

[2] O=C(O)CCCNC(=O)c1cncc(O)c1
  KCNQ2 block: i
  KCNQ2 block baseline: 2.4

[3] O=S(=O)(Nc1ccccn1)c1ccc(Oc2ccccc2)cc1
  KCNQ2 block: i
  KCNQ2 block baseline: -1.5

[4] O=C(N/N=C/c1cc2ccccc2nc1Cl)/C(=C/c1cccs1)NC(=O)c1ccccc1
  KCNQ2 block: i
  KCNQ2 block baseline: -0.15

[5] N=c1oc2cc(O)ccc2cc1C(=O)Nc1nc2ccccc2s1
  KCNQ2 block: i
  KCNQ2 block baseline: 2.6

[6] Cc1ccc(OCC(=O)N/N=C/C=C/c2ccco2)c(Br)c1
  KCNQ2 block: i
  KCNQ2 block baseline: 0.62

[7] COc1ccc2oc(C(=O)NCC(c3ccco3)N(C)C)c(C)c2c1 (configuration not stated)
  KCNQ2 block: i
  KCNQ2 block baseline: 0.05

[8] Cc1nn(C)c(C)c1S(=O)(=O)N1CCC(C(=O)Nc2ccc3c(c2)OCCO3)CC1
  KCNQ2 block: i
  KCNQ2 block baseline: 1.1

[9] CCc1c(C#N)c(SCCC(=O)Nc2ccc(F)cc2)nc2c1C(=O)CC(C)(C)C2
  KCNQ2 block: i
  KCNQ2 block baseline: -0.15

[10] COc1ccc(S(=O)(=O)NCCc2ccncc2)cc1
  KCNQ2 block: i
  KCNQ2 block baseline: 0.35

[11] O=S(=O)(c1cccs1)N1CCN(c2ccc(Cl)cc2)CC1
  KCNQ2 block: i
  KCNQ2 block baseline: 1.1

[12] COc1ccc(/C=C/C(=O)NC(=S)Nc2ccc(S(=O)(=O)Nc3cc(C)on3)cc2)cc1
  KCNQ2 block: i
  KCNQ2 block baseline: -0.57

[13] NS(=O)(=O)c1ccc(NC(=S)N2CCc3ccccc32)cc1
  KCNQ2 block: i
  KCNQ2 block baseline: -0.93

[14] COc1ccc(C)cc1NC(=O)C1CCCN(S(=O)(=O)c2ccc3[nH]c(=O)ccc3c2)C1 (configuration not stated)
  KCNQ2 block: i
  KCNQ2 block baseline: 2.8

[15] COc1cccc(=O)c2c(C)n(C)c(C)c12
  KCNQ2 block: i
  KCNQ2 block baseline: -3.5

[16] CC(=C/c1ccccc1)/C=N/NC(=O)c1cnccn1
  KCNQ2 block: i
  KCNQ2 block baseline: 0.02

[17] O=C(Nc1nc2ccccc2[nH]1)c1ccc(Cl)cc1
  KCNQ2 block: i
  KCNQ2 block baseline: 0.08

[18] COc1ccccc1C1CCN(C(=O)c2ccco2)CC1
  KCNQ2 block: i
  KCNQ2 block baseline: 3.1

[19] O=C(CSc1nnc(-c2ccco2)n1-c1ccccc1)NCc1ccco1
  KCNQ2 block: i
  KCNQ2 block baseline: 0.02

[20] CCOC(=O)c1c(C)c(C(=O)NCc2cccs2)c(C)n1C
  KCNQ2 block: i
  KCNQ2 block baseline: 3.1

[21] O=C(Nc1ccccc1N1CCCC1)c1ccc(Cl)cc1Cl
  KCNQ2 block: i
  KCNQ2 block baseline: -0.25

[22] Cc1cccnc1NC(=O)Cn1nc([N+](=O)[O-])cc1C
  KCNQ2 block: i
  KCNQ2 block baseline: 0.24

[23] O=C(CSC1=NS(=O)(=O)c2cc(F)ccc2N1)Nc1ccccc1
  KCNQ2 block: i
  KCNQ2 block baseline: 0.83

[24] Clc1cccc(CN2CCc3c([nH]c4ccccc34)C2)c1
  KCNQ2 block: i
  KCNQ2 block baseline: 0.94

[25] O=C(COc1ncnc2c(Cl)cc(Cl)cc12)NC1CCCCCC1
  KCNQ2 block: i
  KCNQ2 block baseline: -1.4

[26] COc1ccc(CCCC(=O)N/N=C/c2ccccc2OC)cc1
  KCNQ2 block: i
  KCNQ2 block baseline: 1

[27] Cc1ccc(N(C(C)C(=O)N2CCCC2)S(C)(=O)=O)cc1 (configuration not stated)
  KCNQ2 block: i
  KCNQ2 block baseline: -0.13

[28] O=C(O)c1cc(Cl)ccc1-c1ccc(/C=C/c2cc(C(F)(F)F)[nH]c(=O)n2)o1
  KCNQ2 block: i
  KCNQ2 block baseline: 16

[29] Cc1cccc(NC(=O)Cn2cc(C=O)c3ccccc32)c1
  KCNQ2 block: i
  KCNQ2 block baseline: -0.87

[30] CSc1ccccc1OCc1cc(C(=O)NCCc2nc(C)cc(C)n2)no1
  KCNQ2 block: i
  KCNQ2 block baseline: -2.4

[31] CC(NCCC1(Cc2ccccc2Cl)CCOC(C)(C)C1)c1cccs1 (configuration not stated)
  KCNQ2 block: i
  KCNQ2 block baseline: 0.06

[32] Cc1ccc(CC(=O)Nc2ccc(C(=O)N3CCCCC3)cc2)cc1
  KCNQ2 block: i
  KCNQ2 block baseline: 1.3

[33] O=C(Nn1c(Cc2cccs2)nc2ccccc2c1=O)c1cccs1
  KCNQ2 block: i
  KCNQ2 block baseline: 0.67

[34] COc1ccc(N2CC(C)Cn3c2nc2c3c(=O)n(Cc3ccccc3F)c(=O)n2C)c(OC)c1 (configuration not stated)
  KCNQ2 block: i
  KCNQ2 block baseline: -0.12

[35] COC(=O)c1ccc(NC(=O)c2ccccc2N(C)S(C)(=O)=O)cc1
  KCNQ2 block: i
  KCNQ2 block baseline: -0.53

[36] Cn1c(SCC(=O)N/N=C/c2cc([N+](=O)[O-])ccc2O)nnc1-c1ccccc1
  KCNQ2 block: i
  KCNQ2 block baseline: -0.37

[37] O=C(COC(=O)c1ccccc1C(=O)N1CCN(c2ccc(F)cc2)CC1)NCc1ccccc1
  KCNQ2 block: i
  KCNQ2 block baseline: -0.29

[38] CCCOc1ccc(CNC(=O)Cn2ncc3ccccc32)cc1
  KCNQ2 block: i
  KCNQ2 block baseline: 0.06

[39] CCOP(=O)(OCC)c1nc(-c2cccc3ccccc23)oc1N1CCCCC1
  KCNQ2 block: -6.1*
  KCNQ2 block baseline: -1.7*

[40] C=CCn1c(SCc2ccc(C#N)cc2)nnc1-c1cccc(OC)c1
  KCNQ2 block: i
  KCNQ2 block baseline: 0.53

[41] Cc1cc(C(F)(F)F)nn1CC(=O)N1CCCC1
  KCNQ2 block: i
  KCNQ2 block baseline: -0.05

[42] CCC(Sc1nc(C)cc(C)n1)C(=O)Nc1ccc(S(N)(=O)=O)cc1 (configuration not stated)
  KCNQ2 block: i
  KCNQ2 block baseline: 1.6

[43] Cc1ccc(C2c3c(oc4ccccc4c3=O)C(=O)N2c2nnc(C(C)C)s2)o1 (configuration not stated)
  KCNQ2 block: i
  KCNQ2 block baseline: -1.2

[44] CCOC(=O)N1CCC(Nc2nc3ccccc3nc2NS(=O)(=O)c2ccc(Cl)cc2)CC1
  KCNQ2 block: i
  KCNQ2 block baseline: -1.2

[45] C=CCNc1oc(-c2ccco2)nc1S(=O)(=O)c1ccccc1
  KCNQ2 block: i
  KCNQ2 block baseline: -1

[46] Clc1ccc(NC2=NCCCCC2)cc1
  KCNQ2 block: i
  KCNQ2 block baseline: -0.15

[47] N#C/C(=C/c1cn(-c2ccccc2)nc1-c1cccc(OCc2ccccc2)c1)C(=O)NCCCn1ccnc1
  KCNQ2 block: i
  KCNQ2 block baseline: 3.8

[48] COc1ccccc1C(=O)NNc1ncc(C)s1
  KCNQ2 block: i
  KCNQ2 block baseline: -0.32

[49] NC(=O)NC(=O)C(Nc1ccc2c(c1)CCC2)c1ccccc1 (configuration not stated)
  KCNQ2 block: i
  KCNQ2 block baseline: -0.28

[50] COc1cccc(C(=O)NCCS(=O)(=O)NC(C)CCc2ccccc2)c1 (configuration not stated)
  KCNQ2 block: i
  KCNQ2 block baseline: -1.8

[51] CCOC(=O)NC(=O)c1cn(Nc2ccccc2C(F)(F)F)c(=O)[nH]c1=O
  KCNQ2 block: i
  KCNQ2 block baseline: -2.3

[52] Cn1c(=O)c(=O)n(C)c2cc(S(=O)(=O)N3CCc4ccccc43)ccc21
  KCNQ2 block: i
  KCNQ2 block baseline: 2.3

[53] COC(=O)c1ccc(NC(=O)c2ccc3nc(C)sc3c2)cc1
  KCNQ2 block: i
  KCNQ2 block baseline: 2.1

[54] COc1ccccc1C(=O)N1CCN(Cc2nc(CC3CC3)no2)CC1
  KCNQ2 block: i
  KCNQ2 block baseline: 0.21

[55] CC1CCN(C(=O)CSc2nnc(Cc3cccn3C)n2CCc2ccccc2)CC1
  KCNQ2 block: i
  KCNQ2 block baseline: 0.89

[56] CCOC(=O)c1cc(C)sc1/N=C/C1=C(O)CCCC1=O
  KCNQ2 block: i
  KCNQ2 block baseline: 0.53

[57] CN(CCC#N)S(=O)(=O)c1cc2c3c(c1)CCN3C(=O)CC2
  KCNQ2 block: i
  KCNQ2 block baseline: -0.04

[58] CC1CN(c2nc(-c3ccccc3)nc3ccccc23)CC(C)O1 (configuration not stated)
  KCNQ2 block: i
  KCNQ2 block baseline: -1.4

[59] COc1ccc(S(=O)(=O)N2CCC(C)CC2)cc1Br
  KCNQ2 block: i
  KCNQ2 block baseline: 0.48

[60] Cc1nc(S/C(=C/c2ccc(OCc3ccc(C(=O)O)cc3)cc2)C(=O)O)n[nH]1
  KCNQ2 block: i
  KCNQ2 block baseline: -0.36

[61] COc1ccc(-c2csc(NC(=O)c3nc(-c4ccccc4)oc3C)n2)cc1
  KCNQ2 block: i
  KCNQ2 block baseline: 1.4

[62] Cc1cc(N2C(=O)C(O)=C(C(=O)c3cccs3)C2c2ccccc2)no1 (configuration not stated)
  KCNQ2 block: i
  KCNQ2 block baseline: 3.4

[63] CCCN1C2CCCC1CC(NC(=O)c1cccc([N+](=O)[O-])c1)C2 (configuration not stated)
  KCNQ2 block: i
  KCNQ2 block baseline: -0.57

[64] O=C(CC1C(=O)OCC2CCCCN21)Nc1ccccc1C(F)(F)F (configuration not stated)
  KCNQ2 block: i
  KCNQ2 block baseline: -1.1

[65] COc1cc(CN2CCNC(=O)C2CC(=O)N(C)CCC2CCOCC2)cc(OC)c1 (configuration not stated)
  KCNQ2 block: i
  KCNQ2 block baseline: 1.8

[66] CCc1ccc(CNC(=O)CC2C(=O)NCCN2Cc2ccccc2F)nc1 (configuration not stated)
  KCNQ2 block: i
  KCNQ2 block baseline: -1.2

[67] COc1ccc(NC(=O)COC(=O)C2CC(=O)N(c3ccc(C)cc3)C2)cc1 (configuration not stated)
  KCNQ2 block: i
  KCNQ2 block baseline: 0.38

# A portion of the library (hit frequency here may not be typical).
